NPR1 antag = antagonists of human natriuretic peptide receptor Npr1 | AID 1347048 | P16066 | Potency, µM (highest dose often 46.3 µM), for the others: at the highest dose activity change, negative = inhibition, usual class: inhibitors | HEK293 hNpr1 GloSensor cGMP, ANP-stimulated luminescence | 76,000 tested, 1.6% active; active = well fitted inhibition curve with a large enough effect; inconclusive = small, poorly fitted or top-dose-only effect; inactive = no such curve, though single readings can be large or run the other way;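 also: nearly all actives have a fitted effect of over 60% in size; nearly all hits also lower the signal before the agonist is added; a reference antagonist and vehicle were the controls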
Target sequence (P16066 whole entry, looked up): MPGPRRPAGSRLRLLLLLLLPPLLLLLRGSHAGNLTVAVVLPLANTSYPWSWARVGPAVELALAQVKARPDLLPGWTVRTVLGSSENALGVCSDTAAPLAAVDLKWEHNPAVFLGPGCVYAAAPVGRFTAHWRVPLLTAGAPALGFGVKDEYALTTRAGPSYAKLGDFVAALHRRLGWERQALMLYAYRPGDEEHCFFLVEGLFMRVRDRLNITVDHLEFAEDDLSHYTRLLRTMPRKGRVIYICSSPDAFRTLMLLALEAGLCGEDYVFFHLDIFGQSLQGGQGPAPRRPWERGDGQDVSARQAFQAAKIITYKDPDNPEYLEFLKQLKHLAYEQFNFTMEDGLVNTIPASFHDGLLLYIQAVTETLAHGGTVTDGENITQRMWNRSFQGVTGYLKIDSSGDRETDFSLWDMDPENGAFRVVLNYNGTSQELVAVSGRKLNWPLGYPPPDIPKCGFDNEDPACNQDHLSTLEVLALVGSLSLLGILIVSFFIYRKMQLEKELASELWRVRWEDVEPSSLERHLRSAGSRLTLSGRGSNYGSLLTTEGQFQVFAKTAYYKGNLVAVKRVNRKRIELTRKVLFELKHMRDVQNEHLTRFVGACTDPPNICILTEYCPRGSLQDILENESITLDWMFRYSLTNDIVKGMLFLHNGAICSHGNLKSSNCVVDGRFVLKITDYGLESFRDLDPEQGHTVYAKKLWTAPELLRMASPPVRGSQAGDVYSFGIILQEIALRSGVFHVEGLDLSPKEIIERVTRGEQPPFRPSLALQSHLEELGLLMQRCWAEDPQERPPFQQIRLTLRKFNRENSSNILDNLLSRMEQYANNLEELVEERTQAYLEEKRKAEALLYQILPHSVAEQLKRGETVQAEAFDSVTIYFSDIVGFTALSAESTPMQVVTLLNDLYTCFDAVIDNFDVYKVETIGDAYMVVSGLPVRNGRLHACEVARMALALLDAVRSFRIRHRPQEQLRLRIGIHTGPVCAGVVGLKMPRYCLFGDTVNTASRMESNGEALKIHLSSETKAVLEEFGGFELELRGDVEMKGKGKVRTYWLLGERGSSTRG
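HEK293 cells stably expressing human Npr1 and cGMP GloSensor pGS-40F, loaded 2 h with 2% GloSensor reagent, given compound 30 min at room temperature. Luminescence read before and 20 min after 0.1 nM hNppA.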
An asterisk follows results filed as active; u = inconclusive; & = joins results of further samples; [ ] = remark or other dose. % is scaled to controls: 0 for no effect and ±100 for the full control effect; potency is read from the fitted curve at half-maximal effect. This is a subset; the hit share may differ from the screen's.

NPR1 antag	SMILES
12%	COCCNC(=O)[C@H]1C[C@H](Oc2cccnc2)CN1S(=O)(=O)c1cn(C)cn1
0%	CCn1nccc1C(=O)N1CCC2(CC1)CC(OC)CCO2 (configuration not stated)
0%	COC[C@@H]1[C@H](C(=O)NCCC2=CCCCC2)CCC(=O)N1C
-1%	Cc1ccsc1CN1CCCCCCNC(=O)[C@@H]2CCC[C@@H]21
7%[70.6 µM]	CC(=O)Nc1ccc([C@H]2OCC(=O)N[C@@H]2CO)cc1
5%	O=C1NCCCCCCN(C(=O)Cc2cccnc2)[C@@H]2C[C@@H](c3nc(-c4cccnc4)no3)C[C@H]12
-6%	COc1ccccc1NC(=O)Cn1c(-c2ccc(F)cc2)nc(C)cc1=O
-1%	Cn1cccc1C(=O)N1CCC(n2cnnc2-c2ccccc2)C1 (configuration not stated)
-6%	Nc1nc2c(s1)C(c1cccc(F)c1)CC(=O)N2 (configuration not stated)
4%	NC(=O)[C@@H]1C[C@H](Oc2cccnc2)CN1C(=O)CCC1CCCC1
-2%	COc1ccc(CNC(=O)N2C[C@H](c3nc(-c4ccncc4)no3)[C@@H](C)C2)cc1
0%	Cc1cccc(Cn2nc(C3CCCNC3)n(-c3ccccc3)c2=O)c1 (configuration not stated)
-6%	CCc1noc(-c2cn(C3CCCN(C(=O)c4ccc5c(c4)OCO5)C3)nn2)n1 (configuration not stated)
-29%	O=C(c1ccncc1)N1CCCC(n2cc(-c3nc(-c4ccccc4)no3)nn2)C1 (configuration not stated)
3%	NCCC(=O)N1CCCC(N2CCN(c3ccccc3F)CC2)C1 (configuration not stated)
-12%	COCC(=O)NC1CCC12CCN(Cc1cccc(OC)c1)CC2 (configuration not stated)
2%[70.6 µM]	O=C1[C@@H]2C[C@@H](O)CN2C2(CN(C3CCOCC3)C2)C(=O)N1Cc1ccccc1Cl
2%[70.6 µM]	CC(C)CC(=O)N1CC[C@H]2COC(=O)N2c2cc(F)ccc2C1
0%[70.6 µM]	COc1ccc(NC(=O)c2c(C)nc3n2CCC(Nc2ccccc2C)C3)cn1 (configuration not stated)
3%	Cc1ccc(C(C)NC(=O)c2cn(CCN3CCNCC3)nn2)cn1 (configuration not stated)
-14%	COc1ccc(-c2onc(C)c2C(=O)NCCc2cccs2)cc1
-30%[70.6 µM]	COc1cccc(CN2CCc3nc(C(=O)NCC4CC4)oc3CC2)c1
-2%	O=C(Nc1ccc(Cl)cc1)N1CCn2c(nn(-c3ccc(F)cc3)c2=O)C1
-24%	CCn1cc(S(=O)(=O)N2CC(Oc3ccccc3-c3noc(C)n3)C2)cn1
9%	CCN1CCN(C2(C(=O)NCCC3CCCCO3)Cc3ccccc3C2)CC1 (configuration not stated)
0%	CCOc1ccc(-c2nc(-c3nnn4c3COC(c3ccc(OC)cc3)C4)no2)cc1 (configuration not stated)
-3%	N#CC1CCN(C(=O)c2nc(-c3cccc(C(F)(F)F)c3)c3ccccn23)CC1
0%	Cn1nc2cccc(S(=O)(=O)N[C@H](c3ccccn3)C3CC(O)C3)c2n1 (some centres not stated)
1%	O=C(Cn1nc(-c2ccco2)ccc1=O)NC1CCCc2c1[nH]c1ccccc21 (configuration not stated)
-1%	Cc1nccn1CCNC(=O)C12CCCC=C1N(C1CCCC1)C(=O)CC2 (configuration not stated)

Reprinted from the part before: 2 entries, followed by the next part.
NPR1 antag	SMILES
1%	O=C(Cn1nc(-c2ccco2)ccc1=O)NC1CCCc2c1[nH]c1ccccc21 (configuration not stated)
-1%	Cc1nccn1CCNC(=O)C12CCCC=C1N(C1CCCC1)C(=O)CC2 (configuration not stated)
2%	O=C(NC1CCCCC1)[C@@H]1C[C@@H](O)CN1C1CCN(C(=O)c2ccccc2F)CC1
2%	O=C1CC(c2ccccc2)N(Cc2ccncc2)CCCN(Cc2ccccn2)CCN1 (configuration not stated)
-5%[70.6 µM]	COc1ccc(-c2cc(-c3ccccc3)nc3c(C)noc23)cc1OC
4%	Cc1n[nH]c(C)c1C(NC(=O)c1c(C)c2cccc(C)c2n1C)C(=O)O (configuration not stated)
-2%	O=C(NC1CCCCC1)C1CN(C(=O)c2cccc(F)c2)CC12CCOCC2 (configuration not stated)
3%	Cc1cc(C(=O)NC2CC(C)(C)Cc3nc(N4CCOCC4)ncc32)nn1C (configuration not stated)
0%	Cc1ccc(-n2c(C3CCN(C(=O)c4cccc(C(F)(F)F)c4)CC3)n[nH]c2=O)cc1
4%	CN1CCN(c2nc3c(c(=O)[nH]2)CCN(Cc2cccnc2)CC3)CC1
3%	CC(=O)N1CCC(NCc2cccnc2Oc2ccccc2C)CC1
32%[activator]	CC(=O)N1CC2(CCN(C(=O)NCc3ccccc3)CC2)CC1C(=O)O (configuration not stated)
-2%	COc1cccc(CCC(=O)N2CCCN(c3cc(-c4ccccc4)[nH]n3)CC2)c1
u	O=C(c1ccco1)N1CC(Oc2ccc(-c3nc(-c4ccccc4)no3)cc2)C1
-3%	CC(C)(C)c1ccc(-c2cc(C[C@H]3CNCC[C@H]3CC(=O)N3CCN(c4ccc(F)cc4)CC3)no2)cc1
-2%	Cc1ccc(C)c2c(=O)cc(CNC(CCn3cncn3)c3ccccc3)[nH]c12 (configuration not stated)
1%	COCCc1noc(-c2ccccc2OC2CN(C(=O)c3ccncc3)C2)n1
3%[70.6 µM]	O=c1c2c(n(Cc3cccnc3)n1CCc1ccccc1)CN(CC1CC1)CC2
4%	CC(C)C1CN(C(=O)c2ncoc2C2CC2)CCCN1Cc1ccc(F)cc1 (configuration not stated)
u	CCc1noc(-c2nnn3c2COC(c2ccc(Cl)cc2)C3)n1 (configuration not stated)
-18%[70.6 µM]	O=C(NC1CCOCC1)c1ccc2c(c1)OCCN(c1ccccc1)C2
12%	O=C(c1ccon1)N1CCN(Cc2cnn3cccnc23)CC(O)C1 (configuration not stated)
6%	Cc1nccn1CCCC(=O)N1CC[C@](C)(O)[C@H](C)C1
3%[70.6 µM]	C#CCN(C)C(=O)[C@@H](C)C1CC[C@@]2(C)Cc3sc(NC)nc3[C@@H](C)[C@@H]2[C@H]1O (some centres not stated)
2%	COc1ccc(-c2nn(-c3ccccc3)cc2CN2CCOC(C)(C)C2)c(F)c1
-5%	Cc1cccc(C)c1NC(=O)N(C)CC1CCOCC1
-3%[70.6 µM]	NC(=O)CNC(=O)C1=C[C@@H](NC(=O)NC2CCCCC2)[C@@H](O)[C@H](O)C1
-2%	COc1cccc(CC(=O)N2CCC3(CC2)CN(C2CCC2)CC3CO)c1 (configuration not stated)
u	COCCNC(=O)CC1=CSC2=NC(C)=C(C(=O)Nc3ccccc3)C(c3cccc(C)c3)N12 (configuration not stated)
2%	COCCN1C(=O)CS(=O)C12CCN(C(=O)Nc1ccc(OC)cc1)CC2 (configuration not stated)
0%	O=C(NC1CC1)[C@@H]1CN(CCCc2ccccc2)C[C@H]1CO
-14%	O=C1CC(c2ccccc2)N(C(=O)CNC(=O)NCc2ccc(F)cc2)CCCCCN1 (configuration not stated)

Sorted by number of heavy atoms (smallest number first): some entries from above
NPR1 antag	SMILES
-5%	Cc1cccc(C)c1NC(=O)N(C)CC1CCOCC1
0%	O=C(NC1CC1)[C@@H]1CN(CCCc2ccccc2)C[C@H]1CO
u	CCc1noc(-c2nnn3c2COC(c2ccc(Cl)cc2)C3)n1 (configuration not stated)
12%	O=C(c1ccon1)N1CCN(Cc2cnn3cccnc23)CC(O)C1 (configuration not stated)
-5%[70.6 µM]	COc1ccc(-c2cc(-c3ccccc3)nc3c(C)noc23)cc1OC
2%	COCCN1C(=O)CS(=O)C12CCN(C(=O)Nc1ccc(OC)cc1)CC2 (configuration not stated)
-2%	O=C(NC1CCCCC1)C1CN(C(=O)c2cccc(F)c2)CC12CCOCC2 (configuration not stated)
u	O=C(c1ccco1)N1CC(Oc2ccc(-c3nc(-c4ccccc4)no3)cc2)C1
-2%	COc1cccc(CCC(=O)N2CCCN(c3cc(-c4ccccc4)[nH]n3)CC2)c1
0%	Cc1ccc(-n2c(C3CCN(C(=O)c4cccc(C(F)(F)F)c4)CC3)n[nH]c2=O)cc1
2%	O=C1CC(c2ccccc2)N(Cc2ccncc2)CCCN(Cc2ccccn2)CCN1 (configuration not stated)
u	COCCNC(=O)CC1=CSC2=NC(C)=C(C(=O)Nc3ccccc3)C(c3cccc(C)c3)N12 (configuration not stated)
-3%	CC(C)(C)c1ccc(-c2cc(C[C@H]3CNCC[C@H]3CC(=O)N3CCN(c4ccc(F)cc4)CC3)no2)cc1

(more compounds)
NPR1 antag	SMILES
0%	COCCNc1ncc(C(=O)O)c(-c2cc(F)cc(F)c2)n1
8%[70.6 µM]	O[C@@H]1C[C@@H](c2nc(C3CC3)no2)N(Cc2cccs2)C1
0%	O=C1CCN(S(=O)(=O)c2ccccc2)CCCC(C(=O)NCc2ccccc2)CCN1 (configuration not stated)
20%	Cc1ccc(NC(=O)c2cc3c(N4CCCC4)nc(C)cn3n2)cc1
-8%[70.6 µM]	CCOC(=O)N1CCC(Oc2cnc3c(ccn3-c3cncnc3)c2)CC1
-2%	CCCOc1nccnc1NC1CCN(C(=O)c2cccnc2)CC1
15%[70.6 µM]	CCC(C)n1cnc2cccnc21 (configuration not stated)
0%	COCC1CN(Cc2ccccc2F)CC12CCNCC2 (configuration not stated)
-11%	Cc1ccsc1C(=O)NC1CCN(c2cc(-c3ccc(F)cc3)[nH]n2)C1 (configuration not stated)
-10%[70.6 µM]	CN(Cc1cc(C[C@@H]2C[C@H](NS(C)(=O)=O)C2(C)C)no1)c1ccccc1
2%	CCc1ccc(NC(=O)C2CCN(C(=O)c3ncn4c3COC(c3ccc(F)cc3)C4)CC2)cc1 (configuration not stated)
3%[70.6 µM]	CCNC(=O)O[C@@H]1CO[C@H]2[C@@H]1OC[C@@H]2n1cc(C(=O)OC)nn1
u	CC(C)c1noc(CC2CCN(C(=O)c3ccc(F)c(Cl)c3)CC2)n1
28µM*	COc1cc(F)cc(-c2cnc3[nH]cc(CC(=O)NCc4cccnc4)c3c2)c1
15%	Cc1ccc(-n2c(C3CCN(C(=O)Cc4cccc(F)c4)CC3)n[nH]c2=O)cc1
15%&3%	O=C(C1CC1)N1CCC2(C1)C(=O)N(CCc1ccccc1)c1ccccc12 (configuration not stated)
8%	O=C(c1ccsc1)N1CC(c2nnc(-c3ccncc3)o2)C2(CCOCC2)C1 (configuration not stated)
0%[70.6 µM]	O=C1NC[C@@H](CCC(=O)N2CCCC2)N2C[C@@H](NCc3ccc(CO)o3)C[C@@H]12
13%	CCN1CCN(CCCN2CC3(CCN(C(=O)CN)CC3)OC2=O)CC1
4%	O=C(CCn1ccn2nc3c(c2c1=O)CCCC3)NCc1ccc(F)c(Cl)c1
1%[70.6 µM]	CN(C)Cc1cc(CC2(NCc3ccc(N(C)C)cc3)COC2)no1
-1%	COc1ccc(CCN2CC(NCc3cccnc3)CC2=O)cc1 (configuration not stated)
0%	O=C1CC(c2noc(-c3cc(Cl)ccc3F)n2)CN1c1ccc(F)cc1 (configuration not stated)
-3%	Cc1nnnn1CCCN1CCc2onc(-c3ccc(C(F)(F)F)cc3)c2C1
7%	Cc1nn(C)c(C)c1CCN(C)C(=O)[C@H]1CN(Cc2ccccc2)C[C@H]1C(=O)O
-8%	COc1cccc(C(=O)N2CCOc3ccc(CN4CCCCC4)cc3C2)c1
7.9µM*	Cc1nn2c(c1-c1ccccc1Oc1ccccc1)N(C(=O)Cc1ccc3c(c1)OCO3)CCC2
5%[70.6 µM]	Cn1cnc2cc(-c3cccc4[nH]ncc34)cc(C(=O)NCc3cccnc3)c21
5%[70.6 µM]	CC(C)n1nc(OC(C)(C)C(=O)Nc2cccnc2)c2cc(CN3CCOCC3)ccc21
-14%	Cc1cc(S(=O)(=O)N2CCC(n3cnnc3C3CC3)CC2)ccc1Cl

The listing continues.
NPR1 antag	SMILES
3%	O=C(NC1CCCCC1)C1CN(S(=O)(=O)c2cccc(F)c2)CC12CCOCC2 (configuration not stated)
27%[122 µM]	CN(Cc1ccc(F)cc1)C(=O)C1CC1
12%	Cc1cc(C)cc(N2CCC(N3CCC(CCC(=O)NC4CC4)CC3)CC2)c1
-1%	Cc1cccc(NC(=O)C2CCCCC(=O)N2)c1 (configuration not stated)
0%[70.6 µM]	O=C1CC2(CCN(Cc3cccnc3)CC2)Oc2ccccc21
0%	Cc1cncc(-c2ccc(S(N)(=O)=O)cc2F)c1
5%	O[C@H]1[C@H](NCc2cccc(C(F)(F)F)c2)[C@@H](c2ccc(N3CCOCC3)nc2)C[C@H]1O
-1%[70.6 µM]	CC[C@H]1CN(C(C)=O)CC[C@H]1CC(=O)NCc1ccc2c(c1)OCO2
6%	CCOc1ccccc1C(=O)N1CCC2(CC1)N(C)C(=O)CS2(=O)=O
-1%	CCC(CC)NC(=O)C1CCN(c2cn[nH]c(=O)c2)C1 (configuration not stated)
0%	CNc1ncccc1C(=O)N[C@H](c1cccs1)C1CC(O)C1 (some centres not stated)
9%	COc1ccc(C2(C(=O)N3CCCC(c4nc(C(C)C)no4)CCNC(=O)CC3)CC2)cc1 (configuration not stated)
0%	CN1C[C@H](O)C[C@H]1c1nnc2n1CCN(S(=O)(=O)c1ccccc1)CC2
-1%	O=C(CN1CCCC(c2nccn2Cc2cscn2)C1)N1CCOCC1 (configuration not stated)
-15%[70.6 µM]	NC(=O)c1cccc(-c2cc3c(cn2)CN(Cc2ccncc2)CCN3)c1
-3%	COc1ccc(C2(C(=O)N3CCCC(CN4CCOCC4)CC3)CC2)cc1 (configuration not stated)
-15%	COc1ccc(-c2nc(C3CC(=O)N(c4ccc(F)c(Cl)c4)C3)no2)c(OC)c1 (configuration not stated)
10%	Cc1c(NCc2cccnc2)cccc1C(=O)N1CCC2(CCNCC2)CC1
0%	Cc1cc(C(=O)NC2CCc3nnc(C4CC4)n3CC2)nn1C (configuration not stated)
-8%	CC(C)Oc1ccc(CNC(=O)CC2CCOCC2)cc1
-9%	O=C(COc1ccccc1F)c1ccc2c(c1)N(CC(=O)N1CCOCC1)C(=O)CO2
0%	O=C(Nc1ccc(Cl)cc1)N1CCCC(c2nn(-c3ccc(Cl)cc3)c(=O)[nH]2)C1 (configuration not stated)

Bioassay records (PubChem BioAssay)
